SMN2 splice enh – qHTS Assay for Enhancers of SMN2 Splice Variant Expression; HEK293 SMN2-luciferase splicing reporter, luminescence, 30-36 h; Potency, µM (doses to about 46.1 µM), without a hit: at the highest dose activity change, positive = activation, hits mostly activators; hit rate 2.8% among 210,000; AID 1458, 2008; note: % of control where 0% means no effect; nearly all actives have a fitted effect of over 55% in size
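qHTS luciferase splicing reporter: luminescence rises when SMN2 exon 7 is included in transfected HEK293 cells. Compound exposure lasted 30-36 h at 37C, with 4.5 mM final sodium butyrate as control, followed by a ONE-Glo read.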
GoLoco inh red – qHTS Assay for Inhibitors of RGS12 GoLoco Motif Activity (Red Fluorophore); Potency, µM (series often up to 61.6 µM), without a hit: at the top dose activity, negative = inhibition, most hits filed as inhibitors; Guanine nucleotide-binding protein G(i) subunit alpha-1 (Homo sapiens), P63096; hit rate 0.44% among 230,000; Gai1:RGS12 GoLoco peptide FP, rhodamine, 10 min; active = well fitted inhibition curve with a large enough effect, not every such curve was filed as active; inactive = no such curve, though single readings can be large or run the other way; note: % is set by controls: 0 for no effect and ±100 for the full control effect; nearly all actives have a fitted effect of over 30% in size; many of its hits are not listed in these tables
Target sequence (P63096 whole entry, looked up): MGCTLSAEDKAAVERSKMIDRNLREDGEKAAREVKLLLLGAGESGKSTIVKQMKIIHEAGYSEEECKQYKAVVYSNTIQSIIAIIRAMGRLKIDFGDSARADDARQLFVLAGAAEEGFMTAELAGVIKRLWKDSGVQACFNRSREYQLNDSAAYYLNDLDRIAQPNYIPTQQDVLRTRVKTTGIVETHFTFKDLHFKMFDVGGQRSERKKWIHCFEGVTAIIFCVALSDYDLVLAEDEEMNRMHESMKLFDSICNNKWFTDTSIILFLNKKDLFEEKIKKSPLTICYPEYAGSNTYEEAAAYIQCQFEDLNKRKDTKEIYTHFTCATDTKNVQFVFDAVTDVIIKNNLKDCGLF
Epigenetic derep – Quantitative High-Throughput Screen for Regulators of Epigenetic Control; murine LDR cells, GFP reporter derepression, 30 h; Potency, µM (top dose mostly 53.9 µM), inactives show top-dose GFP activation, actives largely listed as activators; hit rate 0.2% among 280,000; AID 1865, 2009; note: % of control where 0% means no effect; nearly all actives have a fitted effect of over 60% in size
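In this reporter-derepression format, murine cells bearing a silenced integrated CMV-GFP locus incubate with test compound (30 h, 37 C), then are washed and imaged; fluorescent objects of 20–120 um count as induced cells.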
JMJD2E inh – qHTS Assay for Inhibitors of Human Jumonji Domain Containing 2E (JMJD2E); Lysine-specific demethylase 4E (Homo sapiens), B2RXH2; JMJD2E catalytic domain, FDH-coupled NADH fluorescence (FDH is formaldehyde dehydrogenase); Potency, µM (doses to about 57.1 µM), inactives show top-dose activity change, negative = inhibition, usual class: inhibitors; hit rate 1.6% among 230,000; active = well fitted inhibition curve with a large enough effect, not every such curve was filed as active; inconclusive = small, poorly fitted or top-dose-only effect, or another doubt; inactive = no such curve, though single readings can be large or run the other way;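 note: 0% = wells with enzyme and -100% = buffer wells without enzyme; nearly all actives have a fitted effect of over 50% in size; many of its hits are not listed in these tables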
Target sequence (B2RXH2 1-337 limits assumed): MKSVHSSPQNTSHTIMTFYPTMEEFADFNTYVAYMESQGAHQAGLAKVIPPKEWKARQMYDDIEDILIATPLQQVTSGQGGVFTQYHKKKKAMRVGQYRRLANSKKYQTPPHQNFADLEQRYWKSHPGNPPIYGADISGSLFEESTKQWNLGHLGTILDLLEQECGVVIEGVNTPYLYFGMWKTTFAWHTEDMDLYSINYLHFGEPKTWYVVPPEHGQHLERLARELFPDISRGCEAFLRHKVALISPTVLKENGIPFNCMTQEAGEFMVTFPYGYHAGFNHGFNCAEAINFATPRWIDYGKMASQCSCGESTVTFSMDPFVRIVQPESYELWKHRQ
Luc counter – Counterscreen for Luciferase (Kinase-Glo TM) Inhibition; Luciferin 4-monooxygenase (Photuris pensylvanica), Q27757; Kinase-Glo luciferase, ATP luminescence, 8 min; Potency, µM (series often up to 38.3 µM), for the others: top-dose activity change, negative = inhibition, hits mostly inhibitors; hit rate 0.28% among 200,000; note: % is set by controls: 0 for no effect and ±100 for the full control effect; nearly all actives have a fitted effect of over 60% in size
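Recombinant Kinase-Glo luciferase, 10 uM ATP (linear range), luciferin; imidazole pH 7.2 / KCl / MgCl2 / Tween / BSA buffer; 8 min RT; luminescence.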
IMPase Li inh – qHTS Assay for Identifying the Cell-Membrane Permeable IMPase Inhibitors: Potentiation with Lithium; CHO-M1 cells, IP1 TR-FRET (IP-One), carbachol + lithium; AID 1457, 2008; Potency, µM (series often up to 59.4 µM), without a hit: at the highest dose activity, negative = IMPase inhibition, actives largely listed as inhibitors; hit rate 0.35% among 210,000;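 note: IP1 builds up when IMPase is blocked and the TR-FRET signal falls; plate controls were basal vehicle for no effect and high inhibitor control for full effect; nearly all actives have a fitted effect of over 50% in size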
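IP1 accumulation measured by competitive TR-FRET in lysed CHO-M1 cells after 30 min compound exposure at 37C, with a small lithium addition to potentiate weak responses. Hill-equation AC50 from ratio and donor-channel data.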
RECQ1 helicase – qHTS Assay for Inhibitors of RecQ-Like Dna Helicase 1 (RECQ1). RECQ1 DNA unwinding, red fluorescence kinetic read. Potency, µM (series often up to 57.3 µM), inactives show top-dose activity, negative = inhibition, hits mostly inhibitors. hit rate 0.54% among 240,000. AID 2549, 2010;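 note: plate controls were vehicle for no effect and no enzyme for full effect; nearly all actives have a fitted effect of over 30% in size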
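50 nM RECQ1T1 preincubated 15 min with compound in Tris pH 8.0 buffer with MgCl2, DTT, Tween-20 and 2.5 ug/ml poly(dI-dC); started with 200 nM TAMRA/BHQ-2 forked duplex and 2 mM ATP. Unwinding read as fluorescence (525/598 nm), two reads 2 h apart.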
The depositor's hits bear a star; i = inactive; ? = inconclusive; / = no result given; & = joins results of further samples; [ ] = another dose, or the depositor's remark. Unless noted, calls come from the whole dose curve; as a rule, active = well fitted curve in the direction sought with a large enough effect; inconclusive = small, poorly fitted or top-dose-only effect, or another doubt; inactive = no such curve, though single readings can be large; an effect the other way counts as inactive or inconclusive. Potency is the fitted concentration of half-maximal effect. Not all compounds are listed, so the mix of outcomes need not match the whole.

Abbreviations – A = SMN2 splice enh; B = GoLoco inh red; C = Epigenetic derep; D = JMJD2E inh; E = Luc counter; F = IMPase Li inh; G = RECQ1 helicase
smiles: Cc1ccc(C2=NNC(C(O)C(O)C(O)CO)S2)cc1 (stereo not given)
  A = -15.9%; B = 6.7%; C = 0.0%; D = -18.5%; E = -0.9%; F = -3.1%[38.3 µM]; G = -1.8%

smiles: CCCN(CCC)C(=S)NC(=O)c1ccc(Cl)cc1Cl
  A = -30.7%[inhibitor]; B = 0.4%; C = 1.9%; D = 3.7%; E = -1.4%; F = -17.1%[38.3 µM]; G = -7.5%

smiles: CCC(C)Nc1nc(-c2cccc(OC)c2O)nc2ccccc12 (stereo not given)
  A = 0.4%; B = 5.6%; C = 2.1%; D = -8.6%; E = 1.2%; F = -2.1%[38.3 µM]; G = -29.9%

smiles: Cc1cc(SCC(=O)N2CCC(c3noc4ccc(F)cc34)CC2)nc2ccccc12
  A = -38.0%[inhibitor]; B = 6.4%; C = -1.7%; D = -3.6%; E = -1.1%; F = -7.4%[38.3 µM]; G = -3.4%

smiles: Cc1cc(NC(=O)C2CC(c3ccc(F)cc3)=NO2)no1 (stereo not given)
  A = 8.3%; B = 4.0%; C = 2.7%; D = -8.2%; E = -1.2%; F = -8.8%[38.3 µM]; G = -12.6%

smiles: CCOC(=O)c1sc(NC(=S)NC(=O)CC(C)C)cc1C
  A = -11.3%; B = 2.0%; C = -1.1%; D = 2.0%; E = -5.8%; F = -12.3%[38.3 µM]; G = -17.4%

smiles: CCOC(=O)C1CCN(c2c(C(=O)c3ccccc3)cnc3ccc(Cl)cc23)CC1
  A = -53.2%[inhibitor]; B = 63.4%[activator]; C = -1.4%; D = -5.8%; E = -2.9%; F = ?; G = -2.1%

smiles: Cc1cccc(-n2nc(C)c3c(C(=O)O)cc(-c4cccs4)nc32)c1
  A = 3.2%; B = 20.6%; C = -1.2%; D = ?; E = 4.4%; F = -24.7%; G = i

smiles: Cc1nc(-c2cccnc2)sc1C(=O)Nc1ccc(C(F)(F)F)cc1
  A = -23.1%; B = 12.4%; C = -0.9%; D = 6.4%; E = 2.4%; F = -3.3%; G = -0.9%

smiles: CC(C)C(c1nnnn1C1CCCCC1)N1CCc2ccccc2C1 (stereo not given)
  A = -22.3%; B = 5.3%; C = 6.0%; D = -3.8%; E = -0.5%; F = 22.7%[38.3 µM]; G = i

smiles: O=C(Nc1ccc(F)cc1)Nc1nnc(-c2ccccc2)o1
  A = -10.2%; B = 4.8%; C = 2.2%; D = ?; E = -2.9%; F = -5.3%; G = i

smiles: Cc1ccc(C(CC(=O)NCc2ccco2)c2ccc(OC(C)C)cc2)cc1 (stereo not given)
  A = /; B = 15.8%; C = -3.6%; D = -2.4%; E = /; F = /; G = -28.4%

smiles: C=CCSc1nc(Oc2ccccc2)c2sccc2n1
  A = -13.6%; B = -2.5%; C = -1.1%; D = 6.4%; E = -3.3%; F = 16.1%[38.3 µM]; G = i

smiles: CCOc1ccc2nc(SCC(=O)Nc3ccc(S(=O)(=O)N4CCCC4)cc3)c(C)cc2c1
  A = /; B = 27.2%; C = -2.2%; D = ?; E = /; F = /; G = -9.0%

smiles: CN(c1ccccc1)S(=O)(=O)c1cccc(NC(=O)c2cc(=O)c3ccccc3o2)c1
  A = -47.8%[inhibitor]; B = 12.6%; C = 0.0%; D = 14.7%; E = -0.7%; F = 15.1%; G = -6.0%

smiles: O=C(NCC1CCCCC1)C12CN(Cc3ccccc3)CC1C(c1cccc([N+](=O)[O-])c1)=NO2 (stereo not given)
  A = -33.4%[inhibitor]; B = 0.4%; C = 0.0%; D = -0.4%; E = 5.4%; F = 8.6%; G = -2.7%

smiles: Cc1ccc(C(C(=O)NC2CCCCC2)N(Cc2ccco2)C(=O)C2COc3ccccc3O2)o1 (stereo not given)
  A = -0.4%; B = -3.8%; C = 1.0%; D = 6.2%; E = -8.0%; F = 42.2%[activator][38.3 µM]; G = i

smiles: Cc1cccc(C)c1NC(=O)C(c1ccc(Cl)cc1Cl)N1CCCCC1 (stereo not given)
  A = 3.7%; B = 9.0%; C = 0.0%; D = -2.8%; E = 1.0%; F = 35.8%[activator][38.3 µM]; G = -8.9%

smiles: CCCSc1nc(N2CCOCC2)c2c(c1C#N)CC(C)(C)SC2
  A = -7.7%; B = -0.2%; C = 0.8%; D = ?; E = -2.4%; F = 32.7%[activator][38.3 µM]; G = -10.5%

smiles: Cc1ccc(CNc2cc(-c3nn4c(C)nnc4s3)ccc2C)s1
  A = 22.6%; B = 10.3%; C = 0.0%; D = ?; E = -0.7%; F = 19.2%[38.3 µM]; G = -2.6%

smiles: Fc1ccccc1/C=N/Nc1nc(-c2ccccn2)nc2ccccc12
  A = /; B = -2.4%; C = ?; D = 3.4%; E = /; F = /; G = -7.8%

smiles: CCC1CCCCN1CC(=O)c1c(C)[nH]c2ccc(OC)cc12 (stereo not given)
  A = /; B = 10.0%; C = -0.3%; D = ?; E = /; F = /; G = -1.0%

smiles: CSc1nc(Oc2ccc(Cl)cc2)c2sccc2n1
  A = -11.4%; B = -3.4%; C = 2.4%; D = -1.8%; E = 2.0%; F = 44.4%[activator][38.3 µM]; G = 3.2%

smiles: COc1ccc(-c2nc3ccccn3c2CN2CCN(c3ccccc3F)CC2)cc1
  A = 5.2%; B = 7.2%; C = -0.3%; D = ?; E = 1.0%; F = 19.6%; G = -16.1%

smiles: COc1ccc(C(=O)Nc2nc3cc4c(cc3s2)OCO4)c(OC)c1
  A = /; B = -4.5%; C = 1.0%; D = ?; E = /; F = /; G = 15.4%

Grouped by structure, the entries above containing a furan ring, fused or not.
Abbreviations – A = SMN2 splice enh; B = GoLoco inh red; C = Epigenetic derep; D = JMJD2E inh; E = Luc counter; F = IMPase Li inh; G = RECQ1 helicase
smiles: Cc1ccc(C(CC(=O)NCc2ccco2)c2ccc(OC(C)C)cc2)cc1 (stereo not given)
  A = /; B = 15.8%; C = -3.6%; D = -2.4%; E = /; F = /; G = -28.4%

smiles: Cc1ccc(C(C(=O)NC2CCCCC2)N(Cc2ccco2)C(=O)C2COc3ccccc3O2)o1 (stereo not given)
  A = -0.4%; B = -3.8%; C = 1.0%; D = 6.2%; E = -8.0%; F = 42.2%[activator][38.3 µM]; G = i

3 compounds already listed, sorted by the value under SMN2 splice enh, descending:
mol	SMN2 splice enh
Cc1cc(NC(=O)C2CC(c3ccc(F)cc3)=NO2)no1 (stereo not given)	8.3%
Cc1ccc(C(C(=O)NC2CCCCC2)N(Cc2ccco2)C(=O)C2COc3ccccc3O2)o1 (stereo not given)	-0.4%
O=C(Nc1ccc(F)cc1)Nc1nnc(-c2ccccc2)o1	-10.2%

Next records follow.
Abbreviations – A = SMN2 splice enh; B = GoLoco inh red; C = Epigenetic derep; D = JMJD2E inh; E = Luc counter; F = IMPase Li inh; G = RECQ1 helicase
smiles: CCOC(=O)CNc1nnc(SCC(=O)OCC)[nH]c1=O
  A = -10.4%; B = -12.2%; C = -1.0%; D = 5.4%; E = -0.4%; F = -27.7%[38.3 µM]; G = -3.6%

smiles: O=C(OCC1OC2OC3(CCCCC3)OC2C2OC3(CCCCC3)OC12)c1ccccc1 (stereo not given)
  A = 6.5%; B = -11.3%; C = -1.6%; D = 8.5%; E = 0.5%; F = 8.5%; G = 5.1%

smiles: CC(C)N(C(=O)CSc1nc2ccccc2n1Cc1ccc(F)cc1)C(C)C
  A = -41.8%[inhibitor]; B = 2.3%; C = -0.2%; D = 2.6%; E = -0.3%; F = 15.3%; G = 0.7%

smiles: CCOc1ccc(-c2cc(C(=O)Nc3ccc4c(c3)OCCO4)c3ccccc3n2)cc1
  A = ?; B = 17.8%; C = -1.1%; D = 208.5%[activator]; E = ?; F = 21.1%[38.3 µM]; G = i

smiles: Cn1c(=O)n(Cc2ccc(F)cc2)c(=O)c2c1nc1n2CCCN1Cc1ccccc1
  A = -65.7%[inhibitor]; B = 4.2%; C = -12.7%; D = -7.4%; E = -3.6%; F = 23.4%[38.3 µM]; G = -8.1%

smiles: CCc1ccccc1NS(=O)(=O)c1ccc2[nH]cc(C(=O)NC3CCCC3)c(=O)c2c1
  A = -43.1%&-14.7%[inhibitor]; B = -4.0%; C = -1.0%&3.0%; D = -6.3%; E = -2.5%; F = 18.6%; G = -12.0%

smiles: c1ccc(-c2cc(-c3nnc4sc(-c5ccccn5)nn34)[nH]n2)cc1
  A = 8.2%; B = 31.4%[activator]; C = 7.2%; D = -3.1%; E = 3.6%; F = ?; G = -12.7%

In a second layout: entries from further up
SMILES	SMN2 splice enh	GoLoco inh red	Epigenetic derep	JMJD2E inh	Luc counter	IMPase Li inh	RECQ1 helicase
CCOC(=O)C1CCN(c2c(C(=O)c3ccccc3)cnc3ccc(Cl)cc23)CC1	-53.2%[inhibitor]	63.4%[activator]	-1.4%	-5.8%	-2.9%	?	-2.1%
Cc1cc(SCC(=O)N2CCC(c3noc4ccc(F)cc34)CC2)nc2ccccc12	-38.0%[inhibitor]	6.4%	-1.7%	-3.6%	-1.1%	-7.4%[38.3 µM]	-3.4%

From PubChem
